E coli growth = E. coli growth inhibition; AID 1053175; OD600 absorbance (concentration not given with the values); Escherichia coli growth, OD600, 23 h; hits give low values; 330,000 compounds, 0.21% hits;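 active means OD600 absorbance below the run mean of sample wells minus 3.6 SD, in any replicate, cut at about 0.56 in these data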;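 further: stock transfer was 300 nL into about 60 µL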
Bfl-1 A1 inh = inhibitors of the anti-apoptotic protein A1, read as caspase activation; MEF A1-2A-BIM cells, Caspase-Glo 3/7 luminescence, 3 h; percent of clofoctol response, vehicle zero; caspase activation, % (no concentration beside the values); 330,000 compounds, 0.066% hits;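 active means over half of replicate activation scores above 10%, or exactly half above 10 with the replicate mean above 10; inconclusive means replicate mean below 10 yet half the replicates above 10; inactive means over half of replicates below 10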;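 further: wells of about 30 µL received 50 nL stock; many hits fall short of the cut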
LANA-H2B inh = blocks KSHV LANA binding to histone H2A/H2B; Q9QR71; cell-free LANA-H2A/H2B peptide, fluorescence polarization; inhibition, % (test concentration not listed); 320,000 compounds, 0.6% hits; in the data active means inhibition mostly above about 10%, no sharp cut-off; inactive means mostly below about 6.7%;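 further: stock transfer was 7.5 nL into about 10 µL; 0% = median of vehicle wells and 100% = median of positive control wells; one replicate is shown; the record names a cut of 25% in any replicate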
Beta2AR agonist = agonists of human beta-2 adrenergic receptor inducing internalization | Am2.2-beta2AR cells, FAP receptor internalization, flow cytometry; reference of the scale not given here | P07550 | AID 504454 | response, % (test concentration not listed) | 340,000 compounds, 0.43% hits;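 active means response above a set limit, near 3 SD of response in nonfluorescent compounds, cut at about 42% in these data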;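 further: stock transfer was 100 nL into about 11 µL; a reference agonist was the positive control; negative values mostly stem from fluorescent compounds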
Target sequence (P07550 whole entry, looked up): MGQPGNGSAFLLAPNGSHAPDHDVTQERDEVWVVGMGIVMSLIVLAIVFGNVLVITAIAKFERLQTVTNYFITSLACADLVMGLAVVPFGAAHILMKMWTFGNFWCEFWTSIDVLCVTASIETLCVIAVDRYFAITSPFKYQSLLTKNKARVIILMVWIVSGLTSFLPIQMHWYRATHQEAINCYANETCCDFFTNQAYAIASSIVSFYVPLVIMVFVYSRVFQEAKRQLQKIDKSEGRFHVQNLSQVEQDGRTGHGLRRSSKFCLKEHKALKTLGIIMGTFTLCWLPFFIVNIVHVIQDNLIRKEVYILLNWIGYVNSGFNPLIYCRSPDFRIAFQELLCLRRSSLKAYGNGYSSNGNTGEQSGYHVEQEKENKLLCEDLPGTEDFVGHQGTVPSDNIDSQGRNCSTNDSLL
UCH37 DUB inh = inhibitors of human deubiquitinating enzyme UCH37; Q9Y5K5; purified proteasome/UCH37, Ub-AMC cleavage fluorescence; inhibition, % (concentration not given with the values); 330,000 compounds, 0.33% hits;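 active means mean of two replicates above 20%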;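 further: 0% = compound-free wells with enzyme and 100% = wells lacking proteasome; stock transfer was 100 nL into about 20 µL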
Target sequence (Q9Y5K5 whole entry, looked up): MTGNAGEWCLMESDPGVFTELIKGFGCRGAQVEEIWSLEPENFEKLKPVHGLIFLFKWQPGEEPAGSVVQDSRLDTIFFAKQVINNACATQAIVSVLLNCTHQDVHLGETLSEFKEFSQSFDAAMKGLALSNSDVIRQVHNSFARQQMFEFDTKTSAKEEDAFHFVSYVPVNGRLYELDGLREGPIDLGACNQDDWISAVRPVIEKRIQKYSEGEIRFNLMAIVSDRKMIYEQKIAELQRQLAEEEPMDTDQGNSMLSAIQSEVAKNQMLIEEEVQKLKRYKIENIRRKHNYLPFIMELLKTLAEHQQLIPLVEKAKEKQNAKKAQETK
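Material: Human UCH37 enzyme supplied as purified proteasome complex | Schedule: 30 min compound-proteasome preincubation then 25 min substrate reaction, room temperature | Detection: AMC fluorescence from Ub-AMC cleavage, excitation 355 nm, emission 460 nm | Benchmarks: Wells without proteasome as full block, compound-free enzyme plus substrate as uninhibited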
HNF4A DNA FP = change in binding of human HNF4 alpha to DNA. 360,000 compounds, 0.3% hits. HNF4a-FITC DNA binding, fluorescence polarization, 1 h. activity change, % at 10 µM. AID 1224865; in the data active means activity change above about 30%, passing the limit was not always enough;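 further: controls were the assay level and a saturating level of protein; the project sought stronger binding though the title names inhibitors; some compounds called inactive have numbers as strong as hits; positive values seem to mean higher polarization but the record does not say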
Vif TR-FRET = inhibitors of Vif binding to APOBEC3G peptide, primary screen, biochemical, TR-FRET, GST-Vif 1-94, biotin-A3G peptide, dose response retest (AID 1117319) | TR-FRET GST-Vif / biotin-A3G peptide binding; higher % means a stronger effect; test concentration not given here; strong numbers were not always called active | inhibition, %, or IC50 in µM where a hit was titrated | 260,000 compounds, 0.57% hits;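 active means above the screen mean plus three standard deviations and confirmed in dose response; inconclusive means results disagree or hit not tested in dose response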;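 further: Vif residues 1-94 fused to GST binding biotinylated APOBEC3G peptide 110-148; 0% = full assay without inhibitor and 100% = GST in place of GST-Vif; retest series ran down from 100 µM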
* marks the source's active call; other numbers are inactive results; u = inconclusive; x = not tested or not shown.

SMILES	E coli growth	Bfl-1 A1 inh	LANA-H2B inh	Beta2AR agonist	UCH37 DUB inh	HNF4A DNA FP	Vif TR-FRET
COc1cccc(NC(=O)CNC(=O)N2CC(=O)Nc3ccccc32)c1	0.71	-0.2	-3.7	-17	6.1	2.5	5%
CCOC(=O)c1c(C)[nH]c(C(=O)N2CCN(CC)CC2)c1C	0.68	-0.2	7.9	14	-0.1	-1.7	x
[O-]/C(=C(\C(=S)NCCN1CCOCC1)[n+]1ccccc1)c1ccc(Cl)s1	0.7	0.5	2.3	-1	8.4	13	x
Clc1ccc(-c2nc3ncccn3c2Nc2ccc3c(c2)OCCO3)cc1	0.69	0.4	3.1	-5	4.0	1.6	-2%
CC(Sc1nc(-c2ccccc2)nc2c1COC(C)(C)C2)C(=O)N1CCOCC1 (stereo unspecified)	0.67	0.2	0.9	22	1.4	-1.0	-1%
O=C(O)CN1C(=O)C2C3CC(C2C1=O)C1C(c2ccccc2)c2sc(=O)[nH]c2SC31 (stereo unspecified)	0.72	3.7	3.1	1	2.0	0.2	16%
O=C(O)c1ccc(O)c(O)c1	0.68	-0.3	2.6	7	2.4	1.4	x
CN(CC(=O)Nc1cccc(S(=O)(=O)N2CCCC2)c1)CC(=O)Nc1ccc(F)c(F)c1F	0.67	x	x	-8	2.6	5.7	x
O=C(c1ccncc1)N1CCN(c2ccc3ccccc3n2)CC1	0.7	0.0	2.8	-4	-17	1.1	25%
O=C1Nc2ccc([N+](=O)[O-])cc2OC1CCN1CCN(c2ccccc2)CC1 (stereo unspecified)	0.76	0.7	-2.2	6	2.3	4.1	3%
Cc1cc(CNC(=O)COC(=O)c2ccc(Cl)c(N)c2)cc(C)c1O	0.71	0.6	8.3	-6	-0.2	-0.9	2%
CC1=CC(C)(C)N2C(=O)C3(NCCc4c3[nH]c3ccccc43)c3cc(C)cc1c32 (stereo unspecified)	0.7	1.5	-8.3	16	2.8	1.4	-4%
c1ccc(SCc2nc(-c3cccnc3)no2)cc1	0.64	-2.9	-3.0	-8	3.9	2.1	4%
Cc1nnc(NC(=O)CCSc2ccccc2)s1	0.66	-0.9	-0.2	-7	1.5	-1.1	4%
O=C(NC1CCN(C(=O)Nc2cccc(F)c2)CC1)c1ccco1	x	-0.3	-0.1	-1	x	1.1	x
CC1CCN(c2c(NCC3CCC(C(=O)NCCCc4ccccc4)CC3)c(=O)c2=O)CC1 (stereo unspecified)	0.67	-0.4	-2.8	x	5.4	x	-5%
O=C(Nc1ccc(N=Nc2ccccc2)cc1)c1ccccc1Cl	0.7	0.1	-4.2	3	5.6	2.2	x
O=C(c1ccco1)N1N=C(c2ccc(Br)cc2)CC1(O)C(F)(F)F (stereo unspecified)	0.69	-0.5	1.4	-10	1.2	0.6	16%
Cc1ccc(NC(=O)CSc2nncc3ccccc23)cc1	0.62	0.6	4.1	-12	9.5	-1.3	x
NC1=NC2(CCCCC2)N(c2ccc(F)cc2)C(N)=N1	0.67	-0.5	-5.0	9	1.7	-2.1	3%
Cc1ccn2c(=O)nc(SCC(=O)N3N=C(c4cccs4)CC3c3ccc(F)cc3)nc2c1 (stereo unspecified)	0.69	0.8	2.7	13	0.8	-0.2	9%
CC(CN1CCOCC1)OC(=O)/C=C/c1ccccc1 (stereo unspecified)	x	-0.3	-0.5	-6	2.3	-3.4	x
COc1cc([N+](=O)[O-])ccc1NC(=O)COC(=O)C1=NN(c2ccccc2)C(=O)CC1	x	0.6	-0.6	1	x	-1.4	x
Cc1ccc(N2CC(C(=O)Nc3nnc(SCC(=O)Nc4cc(C)on4)s3)CC2=O)cc1 (stereo unspecified)	x	1.1	x	4	x	-1.2	x
O=C(O)c1cc2nc(C3CC3)cc(C(F)(F)F)n2n1	0.76	1.2	-0.7	-4	3.5	3.3	2%
O=[N+]([O-])c1ccccc1C1Nc2cccc3cccc(c23)N1	0.66	0.1	-2.7	17	2.1	-3.5	u
COc1ccc(CNC(=O)CN(C)S(=O)(=O)c2ccc(Cl)cc2)cc1	0.62	0.3	0.1	-4	0.3	0.9	3%
CC1CCN(c2nnc(N3CCC(C)CC3)c3ccccc23)CC1	0.76	-0.2	2.6	-4	1.4	-1.7	-23%
O=C(O)c1ccc(CSc2nc3ccccc3[nH]2)cc1	0.71	-4.2	-3.2	5	4.9	-1.8	x
O=[N+]([O-])c1cc(S(=O)(=O)/N=C(/c2ccccc2)N2CCOCC2)ccc1Cl	x	0.9	-3.3	6	x	2.1	-4%
Nc1ccc(S(=O)(=O)NC(=O)c2ccccc2)cc1	0.63	0.7	-14	-2	0.5	-11	u
COc1ccc2c(C(=O)CCl)c[nH]c2c1	0.61	-0.3	-0.9	9	1.4	6.8	u
COc1ccc(Cn2nnnc2C(c2cccs2)N2CCOCC2)cc1 (stereo unspecified)	0.68	0.0	-1.4	9	-3.4	-0.6	-3%
Cc1c(C(=O)O)sc2nc(/C=C/c3cccc(O)c3)[nH]c(=O)c12	0.7	-1.3	1.6	4	-43	-2.6	2%
N#C/C(=C\c1cccnc1)C(=O)Nc1ccccc1	0.65	0.4	-333	9	-4.2	-7.0	x
CCN(CC)S(=O)(=O)c1ccc(N2CCOCC2)c(NC(=O)c2[nH]c(C)c(C(C)=O)c2C)c1	0.66	1.0	-5.0	10	-0.4	-1.1	x
CCN(CC)S(=O)(=O)c1cc(NC(=O)C(C)N2CCN(c3ccccn3)CC2)ccc1C (stereo unspecified)	0.72	-0.1	5.1	5	1.4	1.2	u
CS(=O)(=O)c1ccc2nc(NC(=O)CCS(=O)(=O)c3ccccc3)sc2c1	0.73	0.2	1.6	9	2.1	-3.2	x
C=CCN(CC=C)C(=O)C(=O)c1cc(C)n(-c2ccc([N+](=O)[O-])cc2)c1C	0.64	0.7	-3.4	11	3.5	1.0	31%
O=C(O)/C=C/C(=O)NCc1cn(-c2ccccc2)nc1-c1cccc(Br)c1	x	1.1	-2.4	-7	1.2	-0.1	x
O=C(Cc1cccs1)NCc1ccco1	0.69	0.0	3.9	3	-2.1	2.3	3%
N/C(CC(=O)Nc1cc(C(F)(F)F)ccc1Cl)=N\O	x	0.3	-2.6	7	x	-0.6	-3%
Cc1ccccc1NC(=O)NNC(=O)CCc1ccccc1	0.75	-1.5	-6.7	7	0.5	8.0	0%
Cc1nc(C)c(C(=O)Nc2ccccc2)s1	0.78	-4.3	-2.4	-3	6.1	-1.8	-4%
Cn1ncc(Cl)c1C(=O)N1CCN(c2ccccc2)CC1	0.73	-0.6	1.2	1	3.3	0.4	x
Cc1ccc(NS(=O)(=O)c2ccc(-n3cccn3)cc2)c(C)c1	0.69	-0.7	-0.2	-13	1.5	0.4	x
Cc1csc(SCC(=O)Nc2ccccc2)n1	0.63	-1.9	-0.9	3	1.7	-0.8	x
COc1cc([N+](=O)[O-])ccc1NC(=O)CCCOc1cc(C)ccc1C	0.66	-0.4	0.8	3	3.2	-0.8	x
Cc1ccc2nc(N(CCN3CCOCC3)C(=O)CCS(=O)(=O)c3ccccc3)sc2c1	0.66	-0.6	-3.3	6	4.2	2.1	-7%
CCOc1cc(/C=N/NC(=O)N/N=C/c2ccc(O)c(OCC)c2)ccc1O	x	-4.6	1.8	16	x	x	x

Filtered by structure: those above with an aryl methoxy group
SMILES	E coli growth	Bfl-1 A1 inh	LANA-H2B inh	Beta2AR agonist	UCH37 DUB inh	HNF4A DNA FP	Vif TR-FRET
COc1cccc(NC(=O)CNC(=O)N2CC(=O)Nc3ccccc32)c1	0.71	-0.2	-3.7	-17	6.1	2.5	5%
COc1cc([N+](=O)[O-])ccc1NC(=O)COC(=O)C1=NN(c2ccccc2)C(=O)CC1	x	0.6	-0.6	1	x	-1.4	x
COc1ccc(CNC(=O)CN(C)S(=O)(=O)c2ccc(Cl)cc2)cc1	0.62	0.3	0.1	-4	0.3	0.9	3%
COc1ccc2c(C(=O)CCl)c[nH]c2c1	0.61	-0.3	-0.9	9	1.4	6.8	u
COc1ccc(Cn2nnnc2C(c2cccs2)N2CCOCC2)cc1 (stereo unspecified)	0.68	0.0	-1.4	9	-3.4	-0.6	-3%
COc1cc([N+](=O)[O-])ccc1NC(=O)CCCOc1cc(C)ccc1C	0.66	-0.4	0.8	3	3.2	-0.8	x

More entries follow.
SMILES	E coli growth	Bfl-1 A1 inh	LANA-H2B inh	Beta2AR agonist	UCH37 DUB inh	HNF4A DNA FP	Vif TR-FRET
CCOc1ccc(N(C)S(=O)(=O)c2csc(C(N)=O)c2)cc1	0.65	1.2	3.1	-3	3.0	-0.1	-7%
COc1ccccc1NNC(=O)C(O)(c1ccccc1)c1ccccc1	0.7	0.5	2.5	3	4.8	1.1	-6%
O=C(CN1CCC(O)(c2cccc(F)c2)CC1)NCCc1c[nH]c2ccccc12	0.66	0.5	1.4	17	0.8	-3.9	3%
CCOCC(=O)Nc1cc(C(F)(F)F)ccc1Oc1cccc(Br)c1	0.75	0.9	-2.5	7	-1.3	-1.4	4%
COc1cccc(CN2CCCCC2C(=O)O)c1 (stereo unspecified)	0.69	0.2	-5.8	5	3.6	-3.0	x
Cc1ccccc1NC(=O)CSc1ccc(-c2ccc(-n3cccn3)cc2)nn1	0.69	0.1	2.1	-2	0.2	0.6	x
O=C(CN1C(=O)NC(Cc2ccccc2)C1=O)Nc1ccc(OC(F)F)cc1 (stereo unspecified)	0.69	1.2	2.6	-2	4.1	-0.6	-4%
CC(C)N(Cc1nc(-c2ccc(Cl)cc2)no1)C(=O)C12CC3CC(CC(C3)C1)C2	0.73	1.1	1.7	-8	3.0	-1.5	2%
NC(=O)Nc1ccc(C(=O)OCC(=O)Nc2cccc(S(=O)(=O)NC3=NCCC3)c2)cc1	0.73	0.4	4.1	-4	3.1	-1.7	x
COc1ccc(CCNC(=O)COc2cc(C)cc3oc(=O)cc(C)c23)cc1	0.71	-0.8	1.1	-4	-2.0	0.8	x
CN(CCO)S(=O)(=O)c1ccc2c(c1)C(=NNC(N)=O)c1cc(S(=O)(=O)N(C)CCO)ccc1-2	0.65	0.7	-3.3	-4	4.2	-3.2	-15%
CCOc1ccccc1OCC(=O)NN1Cc2ccccc2C1=N	0.71	-1.6	-3.0	-5	3.8	-0.9	5%
CCOC(=O)C1=C(C)OC(N)=C(C#N)C1c1cc(OC)c2c(c1)OCO2 (stereo unspecified)	0.79	1.0	1.2	-1	-1.6	-0.7	8%
O=S(=O)(c1cccc(F)c1)N1CCN(c2nc(-c3cccnc3)nc3ccccc23)CC1	0.71	0.6	1.4	27	-2.1	5.2	x
Cc1cc(=O)oc2cc(OC(C)C(=O)NCC3CCCO3)ccc12 (stereo unspecified)	0.7	-0.3	21*	-9	-28	3.6	10%
COc1ccccc1CN(C)C(C)C(=O)Nc1cccc(C(C)=O)c1 (stereo unspecified)	0.68	1.1	-4.0	-2	-1.1	2.5	-1%
C#CCSc1n[nH]c(-c2ccco2)n1	0.67	-0.2	-4.2	-226	0.7	3.0	x
Nc1nnc(SCC(=O)NNC(=O)c2ccccc2F)s1	0.72	x	x	x	3.9	-0.2	-2%
COc1ccc(CN=C2Nc3ccccc3CS2)cc1	0.64	-7.7	2.2	-11	0.9	0.8	1%
O=C(NCCc1ccc(Cl)cc1)c1ccc2nccnc2c1	0.72	-1.0	-1.2	-7	1.0	0.0	0%
CNC(=O)CSc1nnnn1CCCOC	0.69	0.2	-3.4	-5	-1.0	0.1	27%
COc1ccc2c(C#CCCO)c(-c3ccc(S(C)(=O)=O)cc3)sc2c1	0.7	-0.5	-3.7	30	-213	-1.2	x
